rRNA inh HTS: inhibits bacterial ribosomal RNA function over humanized ribosomes; 350,000 tested, 1.6% active; GFP signal change (wild-type ribosome), % (no concentration beside the values); E. coli WT GFP vs humanized-ribosome RFP mutants, fluorescence, 24 h; stronger effect = lower value; DMSO median 0, no signal -100; AID 720706;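 active = significant combined selectivity score with lowered wild-type GFP, culture density cut under 30%, mutant RFP and density less affected; inactive = any of these conditions unmet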; also: one replicate is shown; some compounds called inactive have numbers as strong as hits
B2AR ag: agonists of human beta-2 adrenergic receptor inducing internalization; 340,000 tested, 0.43% active; Am2.2-beta2AR cells, FAP receptor internalization, flow cytometry; reference of the scale not given here; response, % (test concentration not listed); P07550; AID 504454;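 active = response above a set limit, near 3 SD of response in nonfluorescent compounds, cut at about 42% in these data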;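 also: stock transfer was 100 nL into about 11 µL; a reference agonist was the positive control; negative values mostly stem from fluorescent compounds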
Target sequence (P07550 whole entry, looked up): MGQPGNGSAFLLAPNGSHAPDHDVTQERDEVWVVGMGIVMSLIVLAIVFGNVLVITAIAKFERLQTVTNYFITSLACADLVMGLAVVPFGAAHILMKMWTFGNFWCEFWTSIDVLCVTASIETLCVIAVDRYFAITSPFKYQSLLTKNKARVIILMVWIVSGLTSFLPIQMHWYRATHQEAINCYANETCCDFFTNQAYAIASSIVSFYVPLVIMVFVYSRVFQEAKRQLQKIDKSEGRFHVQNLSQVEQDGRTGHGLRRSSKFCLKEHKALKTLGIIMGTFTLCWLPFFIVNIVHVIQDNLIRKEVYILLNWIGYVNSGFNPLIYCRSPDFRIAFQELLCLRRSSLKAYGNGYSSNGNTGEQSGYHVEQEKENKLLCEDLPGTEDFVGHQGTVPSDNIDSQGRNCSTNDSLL
rRNA inh HTS OD600: second read-out of rRNA inh HTS, no call of its own (marks repeat the call); OD600 change, %; measured here: OD600 growth;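 optical density of the mix in the first replicate; 0 = DMSO median and -100 = no signal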
rRNA inh HTS RFP: recorded beside rRNA inh HTS, whose call it bears; RFP signal change, %; measured here: RFP humanized mutant strains;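 first replicate; 0 = DMSO median and -100 = no signal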
Active calls of the source: *.

entry	Compound	rRNA inh HTS	rRNA inh HTS OD600
1	COc1cc(Nc2nc3c(N)cc(C(F)(F)F)cc3nc2-c2ccccc2)cc(OC)c1OC	30	14
2	COc1ccccc1CNC(=O)c1cc(S(=O)(=O)N2CCN(c3ccccc3)CC2)ccc1Cl	-6	3
3	CC(C)C[C@@H](CN)NC(=O)c1nc[nH]c1C(=O)N[C@@H](Cc1ccccc1)C(=O)CNC[C@H](C)NC(=O)c1nc[nH]c1C(=O)N[C@@H](C)C(=O)O	14	10
4	COc1oc(C(=O)NC2CCCCC2)c(-c2ccc(Cl)cc2)c1S(=O)(=O)c1ccccc1	12	12
5	O=C(O)c1ccc(OS(=O)(=O)c2ccc(Cl)s2)cc1	-5	-11
6	CCC(=O)Nc1cc2c(cc1Cl)-c1ccccc1C2	0	1
7	CCOC(=O)C1C(C(C)=O)=C(c2ccccc2)c2ccccc2N1S(=O)(=O)C(F)(F)F (stereo unspecified)	-27	-28
8	Cn1cnc([N+](=O)[O-])c1S(=O)(=O)Nc1ccccc1	3	15
9	O=C(/C=C/CCc1ccc2c(c1)OCO2)N1CCCCC1	-9	-11
10	COc1ccc(C2CN=NC2C(=O)c2ccccc2)cc1 (stereo unspecified)	-4	0
11	O=C(N[C@H]1C/C=C\C(c2ccc(F)cc2)N(Cc2ccccc2)C(=O)C1)OCC1c2ccccc2-c2ccccc21 (stereo partly specified)	-3	9
12	O=C(CCCC(=O)NN=Cc1cccc(O)c1)NN=Cc1cccc(O)c1	-1	9
13	CC12CCC(=O)CC1CCC1C2CCC2(C)C1CCC2(O)C(=O)CO (stereo unspecified)	-5	-36
14	CCOC(=O)[C@H]1[C@H]2COc3ccc(Br)cc3[C@H]2N2C(=O)CN(Cc3ccc(Cl)cc3)C(=O)[C@@]12C	2	10
15	O=c1[nH]c(=S)c2[nH]c(=S)n(-c3ccccc3)c2[nH]1	-6	1

entry	rRNA inh HTS RFP	B2AR ag
1	1.0	6
2	-4.4	2
3	-0.6	6
4	5.0	-52
5	0.4	5
6	0.3	2
7	-3.9	5
8	3.9	4
9	-7.7	-5
10	1.9	-12
11	2.1	12
12	-0.1	4
13	-6.7	1
14	4.6	14
15	-1.6	10

The listing continues.
entry	Compound	rRNA inh HTS	rRNA inh HTS OD600
16	COC(=O)[C@@]1(C)[C@H]2C(=O)N(Cc3ccccc3)C(=O)[C@H]2[C@H]2CN=C(SC)N21	13	19
17	O=C1C2CC3N1CCC31c3ccccc3-n3c1c2ccc3=O (stereo unspecified)	8	5
18	N#CCCn1cc(C(=O)CN2C(=O)NC3(CCCCCC3)C2=O)c2ccccc21	0	-11
19	O=C(O)c1cc(-c2cc(C(=O)O)c3ccccc3n2)ccc1O	16	17
20	COc1ccc(CCN2CC(C(=O)OCc3ccccc3Cl)CC2=O)cc1OC (stereo unspecified)	-4	-16
21	CCCCN1CC(COCc2ccccc2)Oc2cccc(OCCN3C(=O)[C@@H]4[C@H](C3=O)C3C=C[C@H]4C3)c2S1(=O)=O (stereo partly specified)	5	-7
22	O=C1NC(=S)SC1=Cc1cc(Br)ccc1O	-55	-80
23	CC[n+]1c(/C=C(\C)OC)sc2ccccc21	0	-8
24	CN(Cc1ccccc1)C(=O)c1cccc(NC(=O)Cc2ccc(NC(=O)C3CCCN(C(=O)C4CCCC4)C3)cc2)c1 (stereo unspecified)	0	-3
25	COc1cc(OC)cc(C(=O)NCC(=O)OCC(=O)Nc2ccc(C)c(S(=O)(=O)N3CCOCC3)c2)c1	0	0
26	CCc1ccccc1NC(=O)CN(C)C(=O)COC(=O)c1c(Cl)cccc1Cl	-15	-12
27	O=C(O)CCCC1(C(=O)O)CCCC1	3	2
28	C[C@@H]1C(c2ccccc2)=NN(c2ccccc2)[C@H]1C(=O)N1CCOC1=O	-22	-24
29	O=C1CC[C@@H]2CC3(C[C@@H]4CCN1[C@H]24)Nc1cc([N+](=O)[O-])ccc1NC3=NC1CCCCC1 (stereo partly specified)	5	4
30	CC(=O)C1=C(O)C(CSCc2ccccc2)N(C)C1=O (stereo unspecified)	6	5

entry	rRNA inh HTS RFP	B2AR ag
16	0.7	1
17	-1.8	-2
18	-0.8	-2
19	2.6	8
20	-0.2	0
21	3.5	18
22	-19	8
23	66	-2
24	-2.3	-14
25	-2.3	1
26	0.6	-5
27	-4.1	-2
28	-10	6
29	-2.4	-5
30	-1.5	3

Shown with each value named: 2 of the compounds above.
(27) O=C(O)CCCC1(C(=O)O)CCCC1
  rRNA inh HTS: 3
  rRNA inh HTS OD600: 2
  rRNA inh HTS RFP: -4.1
  B2AR ag: -2
(26) CCc1ccccc1NC(=O)CN(C)C(=O)COC(=O)c1c(Cl)cccc1Cl
  rRNA inh HTS: -15
  rRNA inh HTS OD600: -12
  rRNA inh HTS RFP: 0.6
  B2AR ag: -5

16 compounds out of the list, arranged by length of the SMILES, rising:
entry	Compound	rRNA inh HTS	rRNA inh HTS OD600
27	O=C(O)CCCC1(C(=O)O)CCCC1	3	2
22	O=C1NC(=S)SC1=Cc1cc(Br)ccc1O	-55	-80
23	CC[n+]1c(/C=C(\C)OC)sc2ccccc21	0	-8
30	CC(=O)C1=C(O)C(CSCc2ccccc2)N(C)C1=O (stereo unspecified)	6	5
17	O=C1C2CC3N1CCC31c3ccccc3-n3c1c2ccc3=O (stereo unspecified)	8	5
19	O=C(O)c1cc(-c2cc(C(=O)O)c3ccccc3n2)ccc1O	16	17
12	O=C(CCCC(=O)NN=Cc1cccc(O)c1)NN=Cc1cccc(O)c1	-1	9
20	COc1ccc(CCN2CC(C(=O)OCc3ccccc3Cl)CC2=O)cc1OC (stereo unspecified)	-4	-16
26	CCc1ccccc1NC(=O)CN(C)C(=O)COC(=O)c1c(Cl)cccc1Cl	-15	-12
18	N#CCCn1cc(C(=O)CN2C(=O)NC3(CCCCCC3)C2=O)c2ccccc21	0	-11
28	C[C@@H]1C(c2ccccc2)=NN(c2ccccc2)[C@H]1C(=O)N1CCOC1=O	-22	-24
25	COc1cc(OC)cc(C(=O)NCC(=O)OCC(=O)Nc2ccc(C)c(S(=O)(=O)N3CCOCC3)c2)c1	0	0
16	COC(=O)[C@@]1(C)[C@H]2C(=O)N(Cc3ccccc3)C(=O)[C@H]2[C@H]2CN=C(SC)N21	13	19
29	O=C1CC[C@@H]2CC3(C[C@@H]4CCN1[C@H]24)Nc1cc([N+](=O)[O-])ccc1NC3=NC1CCCCC1 (stereo partly specified)	5	4
14	CCOC(=O)[C@H]1[C@H]2COc3ccc(Br)cc3[C@H]2N2C(=O)CN(Cc3ccc(Cl)cc3)C(=O)[C@@]12C	2	10
21	CCCCN1CC(COCc2ccccc2)Oc2cccc(OCCN3C(=O)[C@@H]4[C@H](C3=O)C3C=C[C@H]4C3)c2S1(=O)=O (stereo partly specified)	5	-7

entry	rRNA inh HTS RFP	B2AR ag
27	-4.1	-2
22	-19	8
23	66	-2
30	-1.5	3
17	-1.8	-2
19	2.6	8
12	-0.1	4
20	-0.2	0
26	0.6	-5
18	-0.8	-2
28	-10	6
25	-2.3	1
16	0.7	1
29	-2.4	-5
14	4.6	14
21	3.5	18

The list continues.
entry	Compound	rRNA inh HTS	rRNA inh HTS OD600
31	NC(=O)c1ncn([C@@H]2O[C@H](CNCc3cc(Br)ccc3OCc3ccccc3)[C@@H](O)[C@H]2O)n1	7	2
32	CC(C)C[C@@H](CN1CCC[C@@H]1CN1C(=O)C(=O)NC[C@@H]1Cc1ccccc1)N1C[C@H](Cc2ccccc2)N(CC2CCCCCC2)C(=O)C1=O	17	-1
33	COc1ccc(C(CNC(=O)c2cc(S(=O)(=O)N3CCCCC3)ccc2C)N2CCCC2)cc1 (stereo unspecified)	-1	7
34	COc1cccc(C=NNc2nnc(NN=Cc3cccc(OC)c3OC)c3ccccc23)c1OC	-18	4
35	CC1(C2CC2)NC(=O)N(CC(=O)Nc2ccccc2C#N)C1=O (stereo unspecified)	-2	-3
36	CC1(N=Cc2cc(Cl)ccc2O)COP(=O)(NC2CCCC2)OC1 (stereo unspecified)	12	11
37	COC1CC(C)C(OC)c2cc(O)cc(c2O)NC(=O)C(C)=CC=CC(C)C(OC(N)=O)C(C)=CC(C)C1OC (stereo unspecified)	13	13
38	Nc1c(C2CCCCC2)c(=O)on1C(=O)c1ccccc1	15	11
39	COc1ccccc1C(=O)c1ccccc1C(=O)c1ccccc1	-1	-8
40	Cc1ccc(S(=O)(=O)N2C[C@@H]3c4ccccc4N(S(=O)(=O)c4ccc(C)cc4)[C@@H]3[C@@H](C)C2CC(=O)c2ccccc2)cc1 (stereo partly specified)	1	-5
41	CCOC(=O)OCC(=O)C1(O)CCC2C3CCC4=CC(=O)CCC4(C)C3C(O)CC21C (stereo unspecified)	2	-13
42	CC1CCCCN1C(=O)COC(=O)c1cc(Cl)c2c(c1)OCO2 (stereo unspecified)	-1	-3
43	C=C(C)c1cc2c(ccc3ccc(=O)oc32)o1	2	2
44	O=C(NCC1CCCO1)c1cc(-c2ccncc2)nc2ccccc12 (stereo unspecified)	12	9
45	COc1ccc(Cl)cc1S(=O)(=O)NC(C)C(=O)NCCN1CCOCC1 (stereo unspecified)	4	2

entry	rRNA inh HTS RFP	B2AR ag
31	-3.2	2
32	35	22
33	-0.1	0
34	8.3	7
35	2.0	-8
36	4.1	2
37	1.5	1
38	4.5	0
39	2.0	10
40	0.2	0
41	3.0	0
42	-3.4	4
43	4.8	-16
44	0.8	-13
45	-2.3	-8

(listing goes on)
entry	Compound	rRNA inh HTS	rRNA inh HTS OD600
46	CCN1C(=O)CC(SC2CC(=O)N(CC)C2=O)C1=O (stereo unspecified)	7	20
47	Cc1cc(CSc2ccc(Cl)cc2)ccc1N	-30	-39
48	Nc1nnc2cc(Cl)ccc2n1	5	2
49	CCOC(=O)C1=CN(Cc2cccc(F)c2)S(=O)(=O)NC1CCc1ccccc1 (stereo unspecified)	-4	-4
50	COc1ccc(CCNC(=O)COC(=O)c2cccn2C)cc1	-4	-12
51	O=C(COc1ccccc1O)NC1CCCC1	7	12
52	CCCCCCCCCCCCCCCCCCNc1ccn(C2OC(COP(=O)(O)OCC3OC(n4cc(F)c(=O)[nH]c4=O)CC3O)C(O)C2O)c(=O)n1 (stereo unspecified)	6	14
53	Cc1ccc(CSc2ccc(S(=O)(=O)N3CCCCC3)cn2)cc1	5	10
54	COc1c2c(c(OC)c3c1c(=O)c1ccccc1n3C)OCO2	0	4
55	COC(=O)CC(=O)O[C@H]1C=C[C@@H](NC(=O)OC(C)(C)C)C1	6	3
56	CCOC(=O)C1=CNS(=O)(=O)NC1c1ccc(OC(C)=O)cc1 (stereo unspecified)	16	20
57	Cc1ccc(C)c(OCCC(=O)OCC(=O)NC(=O)NC2CCCCC2)c1	4	4
58	CSc1nc(S(C)(=O)=O)nc2[nH]c(=O)[nH]c12	7	11
59	Cc1cccc(NC(=O)COC(=O)c2ccc(S(=O)(=O)N3CCCCCC3)cc2)c1	9	12
60	COC[C@@H]1NS(=O)(=O)c2ccc(Br)cc2O[C@H]1c1ccccc1	-7	-20

entry	rRNA inh HTS RFP	B2AR ag
46	-1.7	-9
47	-10	1
48	3.5	-3
49	2.8	3
50	0.2	-16
51	3.7	-3
52	-0.4	-2
53	0.0	0
54	1.2	-34
55	-0.3	-2
56	1.5	-6
57	6.2	-2
58	-1.2	-9
59	3.7	-9
60	13	-6

More structures:
entry	Compound	rRNA inh HTS	rRNA inh HTS OD600
61	CC[C@]12c3[nH]c4ccc(Cl)cc4c3CCN1C(=O)[C@@H](CC(=O)NCCCN(C)C)C[C@@H]2C(=O)N1CCN(C(=O)c2ccco2)CC1	-6	8
62	CCOC(=O)C1=CN(Cc2cccc(Br)c2)S(=O)(=O)N(CC)C1C (stereo unspecified)	-17	-16
63	CCOC(=O)C1(C(=O)OCC)NC(=O)CC1CC (stereo unspecified)	13	16
64	CC(O)c1cccc(-c2ccc(CN3C[C@]4(CO)O[C@@H](CO)C[C@@H]4S3(=O)=O)cc2)c1 (stereo partly specified)	4	9
65	O=C(NCCCCCCCN1CCCCCCC1)C(C1CCCCC1)C1CCCCC1	-62	-81
66	O=C(O)C(c1ccccc1)C(O)C1CCCC1 (stereo unspecified)	4	11
67	CN(C(=O)c1ccc(NC(=O)Cc2cccc(NC(=O)C3CCN(C(=O)C4CC4)CC3)c2)cc1)C1CC1	2	8
68	C=C(C)C(=O)N1CCN(C(=O)C(=C)C)c2ccccc21	2	-2
69	CC(C)CN(C(=O)CCC1CCCCC1)c1c(N)n(CC(C)C)c(=O)[nH]c1=O	9	19
70	Cc1ccc(/C=C2/CNC/C(=C/c3ccc(C)cc3)C2=O)cc1	-14	8
71	CC(=O)OC1CC2(C)C(CCC2(O)C(C)=O)C2CCC3C(Cl)C(=O)CCC3(C)C12 (stereo unspecified)	2	-3
72	CCCCN(C(=O)C1=CC=CN2CCS(=O)(=O)N=C12)c1ccccc1	7	17
73	O=c1cc(CSc2nc(NCc3ccc(Cl)cc3)c3ccccc3n2)nc2ccc(Cl)cn12	12	-1
74	Cc1ccc(C2=NNC(=Nc3ccc(F)cc3)SC2)cc1	8	4

entry	rRNA inh HTS RFP	B2AR ag
61	-4.2	1
62	-0.2	2
63	3.8	6
64	-0.4	-8
65	-18	29
66	2.3	0
67	1.5	-6
68	1.5	5
69	2.8	2
70	7.7	2
71	3.3	-3
72	1.4	2
73	-6.1	3
74	4.9	0

Source: PubChem

Not all compounds are listed; count on the stated rates, not on these rows.
